Screens from PubChem BioAssay.
VDR inhibitor: vitamin D3 receptor (human) inhibition; P11473; VDR-SRC2-3 peptide fluorescence polarization, 2 h; Potency, µM, without a hit: max response, negative = inhibition, most hits filed as inhibitors; hit rate 0.93% among 400,000; AID 504847; active means well fitted inhibition curve with a large enough effect; inconclusive means small, poorly fitted or top-dose-only effect, or another doubt; inactive means no such curve, though single readings can be large or run the other way; further: series mostly up to about 120 µM
Target sequence (P11473 whole entry, looked up): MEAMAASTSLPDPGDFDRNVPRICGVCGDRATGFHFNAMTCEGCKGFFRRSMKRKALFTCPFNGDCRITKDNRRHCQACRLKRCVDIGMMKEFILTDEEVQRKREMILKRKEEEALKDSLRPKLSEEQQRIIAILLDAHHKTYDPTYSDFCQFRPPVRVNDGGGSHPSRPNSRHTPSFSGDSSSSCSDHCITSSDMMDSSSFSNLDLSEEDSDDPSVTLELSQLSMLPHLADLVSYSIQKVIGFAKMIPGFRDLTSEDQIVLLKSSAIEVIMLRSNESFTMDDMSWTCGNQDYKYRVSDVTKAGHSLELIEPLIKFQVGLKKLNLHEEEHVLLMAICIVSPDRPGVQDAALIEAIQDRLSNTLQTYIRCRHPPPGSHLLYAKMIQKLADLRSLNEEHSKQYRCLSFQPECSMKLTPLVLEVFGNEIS
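After 23 nl compound addition and a short centrifugation, plates sat for 2 hours at ambient temperature; polarization of fluorescence then indicated loss of VDR binding to peptide SRC2-3.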
Active calls of the source: *; ? = inconclusive; & = joins results of further samples. On the % scale 0 is the no-effect control and ±100 the full control effect; potency means the concentration at half of the fitted maximal effect. Only part of the results is shown; rates above refer to the full screens.

SMILES | VDR inhibitor
COc1ccc(N(C(C)C(=O)NN=C2CCCCCCC2)S(C)(=O)=O)cc1 (stereo not drawn) | -7%
Cc1ccc(-c2nc3cc(N)ccc3o2)cc1Br | 28%
Cc1ccc([C@H]2C(C(=O)O)=CC[C@@H](c3cccc(Cl)c3)N2S(=O)(=O)c2ccc(C)cc2)cc1 | -16%
Cc1cc(C=O)c(C)n1-c1ccc(Cl)c(C(=O)O)c1 | 9%
CC(C)CC(=O)NC(=S)Nc1ccc(NC(=O)c2ccco2)cc1 | -12%
Cc1ccc(NCC(=O)N/N=C\c2ccc[nH]2)cc1 | 1%
NC(=O)c1ncn([C@@H]2O[C@H](CO)[C@@H](O)[C@H]2O)c1N | 2%
COc1cccc(/C=N/NC(=O)CCn2nnc3ccccc32)c1 | -5%
CCO[C@@H]1OC(C(=O)Nc2ccccc2)=C[C@H](c2ccc(Br)cc2)[C@H]1CCCO | 10%
Cc1cc(C)cc(OCC(=O)Nc2nc(-c3cccnc3)cs2)c1 | ?
O=C(NCCCN1CCOCC1)c1ccc2c(=O)n(Cc3ccc(Cl)cc3)c(=S)[nH]c2c1 | -5%
COc1ccccc1C1c2[nH]c3ccccc3c2C[C@H]2C(=O)N(C3CCN(Cc4ccccc4)CC3)CC(=O)N12 (stereo partly drawn) | -1%
CCOC(=O)C(C)Oc1cccc2c(=O)n(CC(=O)NCc3ccc(F)cc3)ccc12 (stereo not drawn) | 20%
Cc1ccc(N2CCN(S(=O)(=O)c3ccc(Cl)c4ccccc34)CC2)c(C)c1 | -4%
c1ccc(C[C@H]2CN=C(Nc3ccccc3)N2CCC2CCCC2)cc1 | -13%
COc1ccc(NC(=O)CN(C)C(=O)CC2CCCCC2)cc1 | -9%
Cc1ccc(-c2nnn(CCOc3cccc(Br)c3)n2)cc1 | -7%
Cc1ccc(S(=O)(=O)N2CCN(Cc3noc(CCC(=O)N4CCCCC4)n3)CC2)c(C)c1 | -4%
Cc1cccc(-n2c(O)c(C=Nc3cccc(O)c3)c3ccccc3c2=O)n1 | ?
COC(=O)c1nnn(CC(=O)Nc2cccc(Cl)c2)c1C(=O)OC | -7%
CC(=O)c1ccc(NC(=O)C(C)OC(=O)c2cccc(-n3cnnn3)c2)cc1 (stereo not drawn) | 14%
Cc1ccc(Cn2c(C(=O)NCCCN3CCOCC3)cc3sccc32)cc1 | -12%
CCOC(=O)N1CCC(n2c(=S)[nH]c3ccccc3c2=O)CC1 | -13%
CC(O)CNC12CC3CC(CC(C3)C1)C2 (stereo not drawn) | -11%
CC(C)(C)c1cc(C(=O)NCc2cc(F)cc3c2OCOC3)n(Cc2ccccc2)n1 | -8%
COC(=O)C(OC(=O)c1ccccc1)C(C)Br (stereo not drawn) | -6%
CCOc1ccc(N2C(=O)Cc3ccccc3C2=O)cc1 | -23%
Cc1ccc(-n2ncc(Cl)c2C(=O)NCc2ccccc2)cc1 | -6%
Cc1ccc(C(=O)NC(C)c2ccc(-n3ccnc3)cc2)cc1S(=O)(=O)N1CCOCC1 (stereo not drawn) | -10%
N=C1/C(=C/c2ccc(-c3cccc(C(=O)O)c3)o2)C(=O)N=C2SC=C(c3ccccc3)N12 | -21%
NC(=O)C1CCCN(C(=O)c2ccc3nc(Cc4cccc(Cl)c4)oc3c2)C1 (stereo not drawn) | -14%
Cc1ccc(S(=O)(=O)NCCC2(C(C)C)CCOC(C)(C)C2)cc1 (stereo not drawn) | 4%
CSc1ccccc1NC(=O)CN1CCCCC1C (stereo not drawn) | -4%
O=C(NCc1ccc2c(c1)OCO2)c1ccc2c(c1)N(Cc1ccc(F)cc1)C(=O)c1ccccc1S2=O (stereo not drawn) | 2%
Cc1ccc2oc(C(=O)Nc3c(C(=O)c4ccc(C)c(F)c4)oc4ccccc34)cc(=O)c2c1 | 0%
COc1cc2c(=O)c(C(=O)c3ccc(F)cc3)cn(Cc3cccc(F)c3)c2cc1OC | -8%
CCNc1ncc2nc(-c3ccccc3)c(=O)n(Cc3ccc(F)cc3)c2n1 | -13%
CC1(C)OC(=O)C(=CSc2ccc(C(C)(C)C)cc2)C(=O)O1 | -7%
COc1ccc(C2=NOC(Cn3nc(C(=O)NCc4ccco4)cc3-c3ccccc3)C2)cc1 (stereo not drawn) | -21%
O=C(c1ccco1)N1CCN(C(=O)C2CCCN(S(=O)(=O)Cc3ccccc3)C2)CC1 (stereo not drawn) | ?
Cc1cc(/C=C2\NC(=S)NC2=O)c(C)n1-c1cccnc1 | 5%
CC1CCCN(c2nc3c(c(=O)n(C)c(=O)n3C)n2CCSc2nc3ccccc3o2)C1 (stereo not drawn) | 12%
CCOC(=O)c1sc(NC(=O)c2nc3nc(C)cc(C(F)F)n3n2)c(C(=O)OC)c1C | -20%
Cc1nc2cc(NC(=O)C3COc4ccccc4O3)ccc2s1 (stereo not drawn) | 5%
COc1ccc(C(=O)n2nc(-c3ccco3)nc2N)cc1OC | 6%
Cc1cccn2c(=O)c(/C=C(\C#N)c3nc4ccccc4n3C)c(Oc3ccc(Cl)cc3)nc12 | -3%
Cc1ccc(OCCN(C)C(=O)C2CCC(=O)N(CC3CCCCC3)C2)cc1 (stereo not drawn) | -20%
COc1ccc(NC(=O)c2ccc3c(=O)n(Cc4ccco4)c(=S)[nH]c3c2)c(OC)c1 | -2%
CCOc1ccc(-n2c(C)cc(/C=N\NC(=O)CC(=O)NC3CCCCC3)c2C)cc1 | -6%
Cc1cccc(C)c1NC(=O)CN1CCN(CC(=O)c2cc(C)n(C3CC3)c2C)CC1 | 14%
CC(=O)Nc1ccc(S(=O)(=O)N2CCN(S(=O)(=O)N3CCCCCC3)CC2)cc1 | 13%
COc1ccc(C(=O)COC(=O)CCN=C2NS(=O)(=O)c3ccccc32)cc1OC | 3%
COC(=O)C(CCCCNC(=O)OCc1ccccc1)NC(=O)CN (stereo not drawn) | 1%
CCOC(=O)c1c(NC(=O)c2cc(-c3ccc(Cl)s3)nc3ccccc23)sc(C(N)=O)c1C | 3%
COc1ccc(/C=N/NC(=O)c2ccn[nH]2)cc1Cn1nc(C)c([N+](=O)[O-])c1C | -8%
CCCC(=O)N(Cc1cc2cc(C)ccc2[nH]c1=O)c1ccccc1OC | -6%
CC(C)SCC(=O)Nc1ncc2c(n1)-c1ccccc1CC2 | 7%
CNC(=O)COC(=O)C1CCN(S(=O)(=O)c2ccc3c(c2)OCCO3)CC1 | -1%
Cc1ccc(NC(=O)CSCc2cc(=O)n3cc(C)sc3n2)c(C)c1 | 4%
COc1ccc(S(=O)(=O)N2CCCCC2)cc1NC(=O)COC(=O)c1ccco1 | -11%

(further entries)
SMILES | VDR inhibitor
COc1ccc(/C(O)=C2/C(=O)C(=O)N(c3ncccn3)C2c2ccc(F)cc2)cc1 (stereo not drawn) | -14%
CC(C)(C)OC(=O)N1CCC(c2c(C(=O)NCCc3ccsc3)cnn2-c2ccccc2Cl)CC1 | 10%
Cc1cc2nc(-c3ccc(NC(=O)c4ccc(OCC(C)C)cc4)cc3)oc2cc1C | 5%
C(=N\Nc1nn[nH]n1)/c1ccccc1 | 2%
CSc1ncc(C(=O)Nc2ccccc2C)c(C)n1 | -15%
Cc1[nH][nH]c(=O)c1C(c1c(C)[nH][nH]c1=O)c1cn(C)c2ccccc12 | 5%
CCOC(=O)c1cnc(Nc2nc3ccccc3o2)nc1CSC(=S)N(CC)CC | -14%
CCOc1ccc(NC(=S)N2C3CCCC2CC(NC(=O)C2CC2)C3)cc1 (stereo not drawn) | 6%
CCc1ccc(NC(=O)CN2C(=O)C(c3ccccc3)=NC23CCCCCC3)cc1 | -5%
NC1=NC[C@@H](Cc2ccc(O)cc2)N1CC1CCCCC1 | -18%
CCOc1ccc(CNC(=O)Cn2c(=O)c3cccn3c3cccnc32)cc1 | 8%
CCOCCCNC(=O)c1c(NC(=O)c2nc(SC)ncc2Cl)sc2c1CCCC2 | -8%
CCc1cccc2c(=O)c(C(=O)NCCN3CCOCC3)c[nH]c12 | 6%
CCOc1ccccc1NC(=O)Nc1ccncc1 | 2%
O=C(NCc1ccccc1)/C(=C/c1ccccc1)NC(=O)c1ccco1 | 2%
COc1ccc(N(C)C(=O)Cn2c(=O)oc3ccccc32)c(OC)c1 | -7%
CC1CCN(C(=O)c2[nH]cnc2C(=O)NCCCCCNC(=O)OC(C)(C)C)CC1 | -12%
COc1ccc(-c2cc(C)no2)cc1S(=O)(=O)N(C)c1ccc(C)cc1 | 6%
CCC(=O)N1CCN(c2ccccc2NC(=O)c2ccc(OC)c(Cl)c2)CC1 | -16%
O=C(NCc1ccccc1)C(=O)NCC(c1ccco1)N1CCN(c2ccccc2F)CC1 (stereo not drawn) | -15%
CCc1ccc(S(=O)(=O)Nc2ccc(-c3ccc(N4CCCC4)nn3)cc2)cc1 | 10%
CC(=O)c1cccc(NC(=O)CCCCCn2nnc3ccccc3c2=O)c1 | 11%
CCN(CC)C(=O)Cn1cc(/C=C(\C#N)C(=O)NC2CC2)c2ccccc21 | -5%
CN(CC(=O)Nc1ccc(N2CCOCC2)cc1)C(=O)c1cn(-c2ccccc2)nc1-c1ccccc1 | -2%
Cc1onc(-c2ccccc2)c1C(=O)NCC(=O)Nc1cc(Cl)ccc1Cl | -19%
O=[N+]([O-])c1ccc(Cl)c(CN2CCSCC2)c1 | -4%
O=C(Cn1cc([N+](=O)[O-])cn1)Nc1ccccn1 | 6%
O=C(CCCn1c(=O)oc2ccccc21)N1CCN(c2ccccn2)CC1 | -4%
CCOC(=O)c1c(C)noc1-c1ccco1 | 3%
COc1cccc(-c2cc3nc(-c4ccccc4)cc(=O)n3[nH]2)c1 | 1%
CCCN(CCC)S(=O)(=O)c1ccc(C(=O)N2CCC(=O)c3ccccc32)cc1 | -4%
CCc1ccc(NC(=O)c2ccc(C3SCC(=O)N3CCc3ccccc3)cc2)cc1 (stereo not drawn) | -3%
COc1ccccc1CCNC(=O)c1cnccn1 | -1%
CC(=O)Nc1ccc([N+](=O)[O-])c(CS(=O)(=O)c2ccc(C)cc2)c1[N+](=O)[O-] | 6%
COc1cc(C(c2c(C)[nH][nH]c2=O)c2c(C)[nH][nH]c2=O)ccc1OCc1ccc([N+](=O)[O-])cc1 | ?
Cc1cccc(NC(=O)Cn2c(=O)n(CC3CCC(C(=O)NCCc4ccccc4)CC3)c(=O)c3ccccc32)c1 (stereo not drawn) | -12%
COc1c(N)c2ccccc2[nH]c1=O | -4%
O=C(Nc1nc(-c2ccc(S(=O)(=O)N3CCCC3)cc2)cs1)C1COc2ccccc2O1 (stereo not drawn) | 9%
COc1ccc(C2=COc3ccccc3C(=O)N2)cc1 | -21%
CC1(C(=O)O)COC(c2ccc([N+](=O)[O-])cc2)OC1 (stereo not drawn) | 19%
CCN(CC)CCNCc1cc(Br)ccc1OCC(=O)NCc1ccccc1 | 8%
COc1cc2c(cc1O)CC[C@@H]1[C@@H]2CC[C@]2(C)[C@@H](O)CC[C@@H]12 | -13%&-12%
CCc1ccc(NC(=O)Cn2nc(C)c([N+](=O)[O-])c2C)cc1 | 5%
Cc1ccc(NC(=O)CSCC(=O)N(C)Cc2ccc(Cl)c(Cl)c2)cc1 | -1%
CCN(CC(=O)Nc1ccc(C)c(F)c1)CC(=O)NC(C)C | -5%
O=C(NCCCN1CCOCC1)c1cc(-c2ccco2)nc2ccccc12 | -7%
C=CCN1c2ccccc2[C@]23C[C@@H](C(=O)OC)N(C(C)=O)C2=NC(C(=O)OC)=C(C(=O)OC)[C@H]13 | -3%
CCN(CC)C(=O)CN(C)S(=O)(=O)c1cccc2nsnc12 | 3%
Cc1ccc(S(=O)(=O)N(C)C)cc1NC(=O)Nc1ccccc1F | 3%
Cc1ccc(-c2ccc(=O)n(CC(=O)Nc3cccc(C(=O)N4CCN(C)CC4)c3)n2)cc1 | -15%
O=C(COC(=O)c1c2ccccc2cc2ccccc12)Nc1ncc(C(F)(F)F)cc1Cl | -5%
COC1C/C(=N\O)C2OC(c3ccccc3)OCC2O1 (stereo not drawn) | 7%
COc1ccc(OCc2cccc(C(=O)Nc3cc(C)on3)c2)cc1 | 3%
CCN(CC)CCN(Cc1cc2cc3c(cc2[nH]c1=O)OCCO3)C(=S)NC | -4%
O=C(O)COc1ccc(S(=O)(=O)N2CCCC2)cc1 | 3%
Cc1nc(N/C(N)=N/S(=O)(=O)c2ccc([N+](=O)[O-])cc2)nc2ccccc12 | -13%
CCOC(=O)C(=O)NN=C(c1ccccc1)c1ccccc1 | 18%
